YB-1 expr inh = inhibitors of YB-1 gene expression, primary screen, cell-based, fluorescence; U2OS, qRT-PCR YB-1 vs CDIP delta delta Cp, 16 h; hits give high values; zero = DMSO, each unit about twofold; delta delta Cp (YB-1 minus CDIP) (test concentration not listed); actives 0.37% (n = 30,000);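 active means delta delta Cp rounded down to an integer at or above 3, about 3 SD of DMSO wells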;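 further: higher means less YB-1 transcript or more CDIP transcript relative to DMSO; stock transfer was 100 nL into about 100 µL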
Shh pathway inh = Hedgehog pathway signaling inhibitors, primary screen, luminescence, Shh-LIGHT2 cells, Gli-luciferase | Shh-LIGHT2 Gli-luciferase reporter, 30 h | inhibition, % (concentration not given with the values) | actives 2.1% (n = 22,000) | AID 2313, 2010;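 active means replicate mean of 65% or more; inconclusive means mean lower but half the replicates past it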;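 further: pathway switched on by Shh-conditioned medium diluted 1 in 25 in low serum; 100 nL library stock added to about 40 µL; 0% = median of neutral wells and 100% = positive control level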
MITF inh = inhibitors of MITF, primary screen, MITF inhibitor project, cell-based, luminescence. TRPM1 promoter luciferase, 24 h. inhibition, % (test concentration not listed). actives 0.28% (n = 37,000);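 active means most replicates at 85% or more, or half of them and the mean; inconclusive means half reach 85% but not the mean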;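 further: human melanocyte line stably carrying TRPM1 promoter luciferase reporter; 0% = vehicle wells and 100% = a positive control; the first replicate is given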
PD-1 reverse act = activators reversing PD-1 mediated T-cell inhibition, primary screen, luminescence, primary human CD4 T cells, PD-L1 beads | CellTiter-Glo 96 h | activation, % (concentration not given with the values) | 29,000 tested, under 10 active | AID 2316, 2010;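 active means replicate mean of 50% or more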;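 further: 0% = median vehicle wells and 100% = positive control; 100 nL library stock added to about 50 µL; numbers are from one replicate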
Active calls of the source: *; ? = inconclusive; nt = not tested or not shown. A portion of the library; rates above refer to the full screens.

Start of the listing, in advance, 3 compounds:
SMILES	YB-1 expr inh	Shh pathway inh	MITF inh	PD-1 reverse act
C[C@@H]1CCCCO[C@H](CN(C)C(=O)C2CCCCC2)[C@@H](C)CN([C@H](C)CO)C(=O)c2cc(NC(=O)Nc3ccccc3)ccc2O1	0.165	-51.5	22.8	-1.4
C[C@@H]1CCCCO[C@H](CN(C)Cc2ccc(C(=O)O)cc2)[C@@H](C)CN([C@H](C)CO)C(=O)c2cc(NS(=O)(=O)c3cn(C)cn3)ccc2O1	-0.229	-25.8	-5.3	nt
C[C@H]1CN([C@@H](C)CO)C(=O)c2cc(NS(=O)(=O)c3cn(C)cn3)ccc2O[C@@H]1CN(C)C(=O)Nc1cccc2ccccc12	-0.275	-22.7	2.0	0.6

The list itself, from the first entry:
SMILES	YB-1 expr inh	Shh pathway inh	MITF inh	PD-1 reverse act
C[C@@H]1CCCCO[C@H](CN(C)C(=O)C2CCCCC2)[C@@H](C)CN([C@H](C)CO)C(=O)c2cc(NC(=O)Nc3ccccc3)ccc2O1	0.165	-51.5	22.8	-1.4
C[C@@H]1CCCCO[C@H](CN(C)Cc2ccc(C(=O)O)cc2)[C@@H](C)CN([C@H](C)CO)C(=O)c2cc(NS(=O)(=O)c3cn(C)cn3)ccc2O1	-0.229	-25.8	-5.3	nt
C[C@H]1CN([C@@H](C)CO)C(=O)c2cc(NS(=O)(=O)c3cn(C)cn3)ccc2O[C@@H]1CN(C)C(=O)Nc1cccc2ccccc12	-0.275	-22.7	2.0	0.6
CCn1c(Sc2ncnc3c2sc2nc(C)cc(C)c23)nnc1-c1cccs1	-0.0808	nt	-9.9	-1.1
C[C@@H]1CN([C@H](C)CO)C(=O)Cc2cc(NS(=O)(=O)c3ccc(F)cc3)ccc2O[C@H]1CN(C)C(=O)Nc1ccc(F)cc1	0.0752	-66.9	-12.4	nt
CSc1ccccc1NC(=O)CN(C)S(=O)(=O)c1ccc(Br)cc1	nt	nt	18.0	0.4
COc1ccc(S(=O)(=O)Nc2ccc3c(c2)CC(=O)N([C@H](C)CO)C[C@@H](C)[C@@H](CN(C)S(C)(=O)=O)O3)cc1	-0.141	-43.5	-8.3	nt
C[C@H]1CN([C@@H](C)CO)C(=O)Cc2cc(NC(=O)c3ccncc3)ccc2O[C@@H]1CN(C)C(=O)Nc1ccc(C(F)(F)F)cc1	0.0508	-36.6	-0.4	-0.7
COc1ccc(NC(=O)N(C)C[C@@H]2Oc3ccc(NC(=O)Nc4ccccc4)cc3C(=O)N([C@H](C)CO)C[C@@H]2C)cc1	0.0669	-7.9	-2.2	nt
C[C@@H]1CN([C@H](C)CO)C(=O)Cc2cc(NC(=O)Nc3cccc4ccccc34)ccc2O[C@H]1CN(C)Cc1ccc(C(=O)O)cc1	0.16	7.2	2.2	2.2
CC(C)NC(=O)Nc1cccc2c1O[C@@H](CN(C)C)[C@@H](C)CN([C@@H](C)CO)C2=O	0.465	-24.8	-0.4	2.2
COc1ccc(NC(=O)Nc2ccc3c(c2)C(=O)N([C@H](C)CO)C[C@@H](C)[C@@H](CN(C)S(=O)(=O)c2ccc(OC)cc2)O3)cc1	-0.0473	-59.4	-9.3	nt
O=C(C[n+]1ccc(/C=N/O)cc1)N1CCCCC1	0.198	nt	-10.3	2.2
C[C@H]1CN([C@@H](C)CO)C(=O)c2cccc(NC(=O)Nc3ccc4c(c3)OCO4)c2O[C@H]1CN(C)Cc1ccc(C(=O)Nc2ccccc2N)cc1	0.0985	nt	14.9	-0.9
Cc1noc(C)c1S(=O)(=O)Nc1ccc2c(c1)CC(=O)N([C@@H](C)CO)C[C@H](C)[C@H](CN(C)Cc1ccc(Oc3ccccc3)cc1)O2	0.323	-6.4	7.7	-1.5
COc1ccc(NC(=O)Nc2cccc3c2O[C@@H](CN(C)C(=O)Nc2ccc4c(c2)OCO4)[C@H](C)CN([C@@H](C)CO)C3=O)cc1	-0.0983	11.0	-18.3	-0.1
Cc1ccc(S(=O)(=O)N(C)C[C@@H]2Oc3c(NS(=O)(=O)c4ccc(F)cc4)cccc3C(=O)N([C@H](C)CO)C[C@H]2C)cc1	-0.77	1.9	-13.5	2.0
COc1ccc(C)cc1S(=O)(=O)N(C)CC(=O)O	nt	nt	5.7	1.2
C=C1C(=O)O[C@@H]2/C=C(\CO)CCC/C(C)=C/[C@H](O)C12 (stereo partly specified)	-0.27	-20.4	1.7	-5.5
O=C(CSc1nc2ccccc2s1)NO	nt	nt	70.8	1.2
CC[N+]1=C(C)C(C)(C)c2cc(-c3ccccc3)ccc21	0.146	32.5	12.1	-1.7
CC(C)NC(=O)N(C)C[C@@H]1Oc2c(NC(=O)Nc3ccc(C(F)(F)F)cc3)cccc2C(=O)N([C@@H](C)CO)C[C@H]1C	0.0977	?	7.5	nt
C[C@@H]1CN([C@H](C)CO)C(=O)c2cccc(NS(=O)(=O)c3ccccc3)c2O[C@H]1CN(C)Cc1ccccc1	0.0991	1.6	8.7	nt
COc1ccc(NC(=O)N(C)C[C@@H]2Oc3ccc(NC(=O)Cc4cn(C)c5ccccc45)cc3C(=O)N([C@@H](C)CO)C[C@H]2C)cc1	-0.148	nt	12.6	nt
C[C@H]1CN([C@@H](C)CO)C(=O)c2cccc(NS(=O)(=O)c3cccs3)c2O[C@H]1CN(C)Cc1ccccc1	0.821	20.4	-2.9	nt
C[C@@H]1CN([C@@H](C)CO)C(=O)c2cccc(NC(=O)Nc3ccc(C(F)(F)F)cc3)c2O[C@H]1CN(C)Cc1ccc2c(c1)OCO2	-0.182	5.8	65.8	-7.3
O=C(COc1ccc(Br)cc1)Nc1cccc(-c2nc3ccccc3o2)c1	nt	nt	-56.9	2.1
C[C@@H]1CCCCO[C@@H](CN(C)C(=O)Nc2cccc3ccccc23)[C@@H](C)CN([C@H](C)CO)C(=O)c2cc(NC(=O)Nc3cccc4ccccc34)ccc2O1	-0.34	-34.2	-5.6	0.3
C[C@H](CO)N1C[C@H](C)[C@H](CN(C)Cc2ccc(Oc3ccccc3)cc2)Oc2ccc(N(C)C)cc2CC1=O	0.159	3.9	13.9	-1.2
CC(C)C[C@](O)(C(=O)OCc1ccc(O[C@@H]2O[C@H](CO)[C@@H](O)[C@H](O)[C@H]2O)cc1)[C@H](O)C(=O)OCc1ccc(O[C@@H]2O[C@H](CO)[C@@H](O)[C@H](O)[C@H]2O)cc1	-0.389	-6.6	-9.4	-1.7
C[C@@H]1CN([C@H](C)CO)C(=O)Cc2cc(NC(=O)NC3CCCCC3)ccc2O[C@H]1CN(C)C(=O)Nc1ccc(F)cc1	0.166	-8.4	-4.9	nt
C[C@H](CO)N1C[C@H](C)[C@H](CN(C)S(C)(=O)=O)Oc2c(NS(=O)(=O)c3cn(C)cn3)cccc2C1=O	-0.185	35.6	-2.4	-0.3
O=C(CSc1nc2c(c(C(F)(F)F)n1)CCCC2)Nc1cccc(Cl)c1Cl	nt	nt	-10.7	-0.9
C[C@@H]1CN([C@@H](C)CO)C(=O)c2cc(NS(=O)(=O)c3cccs3)ccc2O[C@@H]1CN(C)Cc1ccncc1	-0.128	nt	-0.8	2.2
CS(=O)(=O)N(CC(=O)Nc1ccccc1-c1ccccc1)c1ccc2c(c1)OCCO2	nt	nt	7.3	-2.6
C[C@@H]1CN([C@H](C)CO)C(=O)Cc2cc(NS(=O)(=O)c3ccc(Cl)cc3)ccc2O[C@H]1CN(C)S(=O)(=O)c1ccccc1	-0.00645	-11.4	3.8	0.3
COC(=O)c1cc(OC)c(OC)cc1NC(=S)N1CCC(C(N)=O)(N2CCCCC2)CC1	nt	nt	2.7	-0.4
CC(=O)c1ccccc1OCC(O)CNC1CCCC1 (stereo unspecified)	nt	nt	-9.1	1.4
C[C@@H]1CN([C@H](C)CO)C(=O)Cc2cc(NS(=O)(=O)c3ccc(F)cc3)ccc2O[C@@H]1CN(C)C(=O)Nc1ccc(F)cc1	-0.0547	nt	-9.2	-0.2
C[C@H]1CN([C@@H](C)CO)C(=O)c2cccc(NC(=O)Nc3ccc4c(c3)OCO4)c2O[C@H]1CN(C)C(=O)Nc1ccc2c(c1)OCO2	-0.0271	9.7	-24.6	nt
Cc1noc(C)c1NC(=O)Nc1ccc2c(c1)C(=O)N([C@@H](C)CO)C[C@H](C)[C@H](CN(C)C)O2	-0.00596	nt	4.6	2.8
C[C@@H]1CCCCO[C@@H](CN(C)S(=O)(=O)c2ccc(Cl)cc2)[C@@H](C)CN([C@H](C)CO)C(=O)c2cc(NC(=O)CCCN(C)C)ccc2O1	0.114	-3.4	1.2	nt
C[C@@H]1CCCCO[C@H](CN(C)C(=O)Nc2ccc(C(F)(F)F)cc2)[C@@H](C)CN([C@H](C)CO)C(=O)c2cc(NC(=O)Nc3ccc(F)cc3)ccc2O1	-0.357	-6.4	19.8	nt
Cc1noc(C)c1NC(=O)N(C)C[C@H]1Oc2ccc(NC(=O)CCN3CCOCC3)cc2C(=O)N([C@H](C)CO)C[C@H]1C	0.02	-16.1	-5.5	1.0
COc1ccc(S(=O)(=O)N(C)C[C@H]2Oc3c(NC(=O)c4cc(C)nn4C)cccc3C(=O)N([C@@H](C)CO)C[C@@H]2C)cc1	-0.0105	-39.2	-14.7	0.8
C[C@H]1CN([C@@H](C)CO)C(=O)Cc2cc(NS(=O)(=O)c3ccccc3)ccc2O[C@H]1CN(C)C(=O)Nc1cccc2ccccc12	0.635	-23.9	3.2	0.1
C[C@H]1CN([C@@H](C)CO)C(=O)c2cccc(NC(=O)C3CCOCC3)c2O[C@@H]1CN(C)S(=O)(=O)c1ccc(F)cc1	0.124	-12.9	-7.0	nt
CN(C)/C=C/C(=O)c1ccsc1	-0.0856	nt	-7.9	-2.4
C[C@H](CO)N1C[C@H](C)[C@H](CN(C)S(=O)(=O)c2ccc(F)cc2)Oc2ccc(NC(=O)CCC(F)(F)F)cc2C1=O	0.366	nt	-9.3	-1.2
C[C@@H]1CN([C@H](C)CO)C(=O)c2cc(N(C)C)ccc2O[C@@H]1CN(C)Cc1ccc(Oc2ccccc2)cc1	0.00224	22.8	2.0	-1.2
CC(C)CCOc1ccccc1C(N)=O	0.32	-9.7	-13.9	0.5
C[C@@H]1CN([C@@H](C)CO)C(=O)c2cccc(NC(=O)c3nc4ccccc4s3)c2O[C@@H]1CN(C)Cc1ccc(Cl)c(Cl)c1	1.87	-17.7	10.3	-6.5
C=C1C(=O)[C@@]23CCC4[C@](C)(C(=O)O)CCC[C@@]4(C)[C@@H]2CC[C@@H]1C3 (stereo partly specified)	0.642	-10.0	nt	nt
C[C@@H]1CN([C@H](C)CO)C(=O)c2cccc(NC(=O)c3ccncc3)c2O[C@@H]1CN(C)Cc1ccc(C(=O)Nc2ccccc2N)cc1	-0.8	nt	26.8	-0.9
COc1ccc(S(=O)(=O)Nc2cccc3c2O[C@H](CN(C)C)[C@H](C)CN([C@@H](C)CO)C3=O)cc1	-0.137	15.5	-6.8	nt
CC(=O)O[C@H]1C[C@@H](OC(C)=O)C(C)(C)C2C[C@@H](OC(C)=O)[C@@]3(C)C4=CC(=O)O[C@@H](c5ccoc5)[C@]4(C)CCC3[C@]21C (stereo partly specified)	-0.653	-51.3	16.3	nt
CS(=O)(=O)N(CC(N)=O)Cc1ccc(Cl)cc1	nt	nt	-3.7	0.6
CCC1(C)Cc2ccccc2-c2nc3[nH]nc(SCC(=O)Nc4ccc(OC)c(Cl)c4)n3c(=O)c21 (stereo unspecified)	nt	nt	32.7	0.4
COc1ccc(NC(=O)Nc2ccc3c(c2)C(=O)N([C@@H](C)CO)C[C@H](C)[C@@H](CN(C)S(C)(=O)=O)O3)cc1	-0.16	nt	-2.8	2.1
CC1=CS(=O)(=O)CC1SC(=S)N(C)C1CCS(=O)(=O)C1 (stereo unspecified)	-0.165	-13.6	-6.6	-0.3
Other compounds:
SMILES	YB-1 expr inh	Shh pathway inh	MITF inh	PD-1 reverse act
COc1ccc(NC(=O)N(C)C[C@H]2Oc3c(NC(=O)Nc4c(C)noc4C)cccc3C(=O)N([C@H](C)CO)C[C@H]2C)cc1	-0.709	-13.3	2.0	2.4
COc1ccc(N(CC(=O)Nc2ccccc2OC)S(C)(=O)=O)cc1Cl	nt	nt	-6.1	-0.3
COc1ccc(CCNS(=O)(=O)c2cc([N+](=O)[O-])ccc2C)cc1OC	nt	nt	-16.5	-0.8
CCOc1c(S(=O)(=O)NC2CC(C)(C)NC(C)(C)C2)ccc(Cl)c1Cl	nt	nt	-2.0	-0.4
CNC[C@@H]1Oc2ccc(NC(=O)Nc3c(C)noc3C)cc2C(=O)N([C@H](C)CO)C[C@H]1C	-0.716	nt	-10.6	2.4
C[C@H]1CN([C@@H](C)CO)C(=O)c2cccc(NC(=O)c3cnccn3)c2O[C@H]1CN(C)S(C)(=O)=O	-0.401	3.1	-4.4	nt
C[C@@H]1CN([C@@H](C)CO)C(=O)c2cc(NC(=O)Cc3ccccc3)ccc2O[C@H]1CN(C)S(C)(=O)=O	0.241	-30.9	5.0	1.0
C[C@H](CO)N1C[C@H](C)[C@H](CN(C)C(=O)Nc2ccc(F)cc2)Oc2ccc(NC(=O)c3ccncc3)cc2CC1=O	-0.118	-24.5	-7.0	nt
NS(=O)(=O)c1ccc(CCNC(=O)CCC2COc3ccccc3O2)cc1 (stereo unspecified)	0.465	24.4	5.4	-0.2

Screening data from PubChem BioAssay.
